Screening results as filed in PubChem.
Rce1 inh: blocks yeast Ras-converting enzyme | yeast membranes, quenched prenylated peptide cleavage fluorescence | calls only | Q03530 | 0.27% of 290,000 active;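 active = fall in fluorescence gain of 50% or more versus controls, with final raw signal at or below 3038400; inconclusive = same 50% fall but final raw signal above 3038400; inactive = fall in fluorescence gain under 50%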;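 note: plate controls were neutral control wells for no effect and wells lacking membranes for full effect; tested at 10 µM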
Target sequence (Q03530 whole entry, looked up): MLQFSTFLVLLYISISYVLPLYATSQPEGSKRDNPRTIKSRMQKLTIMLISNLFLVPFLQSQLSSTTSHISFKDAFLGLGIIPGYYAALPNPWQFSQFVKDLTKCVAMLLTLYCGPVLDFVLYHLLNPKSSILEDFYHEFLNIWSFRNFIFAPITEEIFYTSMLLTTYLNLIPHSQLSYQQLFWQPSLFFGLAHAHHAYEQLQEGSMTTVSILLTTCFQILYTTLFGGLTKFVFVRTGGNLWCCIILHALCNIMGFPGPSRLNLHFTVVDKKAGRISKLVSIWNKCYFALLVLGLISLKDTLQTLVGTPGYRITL
MT1-MMP act inh: inhibitors of human MT1-MMP activation; P50281; HT1080 RFP-PRO-GFP cells, GFP/RFP ratio fluorescence, overnight; percent of plate control window, DMSO zero; GFP/RFP ratio change, % at 20 µM; 0.061% of 360,000 active; AID 651647;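 active = GFP/RFP ratio change of at least 30% with cell ATP level not reduced by more than half and red fluorescence within 50% of control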; note: strong numbers were not always called active
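Test system: HT1080 cells expressing an RFP-PRO-GFP fluorescent reporter construct / Compound dosing: single-point 20 µM compound, 1% DMSO / Schedule: cells overnight before dosing, compound overnight, 37 °C, 5% CO2 / Evaluation: GFP/RFP fluorescence ratio / Control set: DMSO and RFP-L50D-GFP cell wells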
CSC inhib: blocks cancer stem cells | cancer stem cell-like cells viability, luminescence | inhibition, % at 7.5 µM | 1.1% of 300,000 active | AID 2717;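 active = mean at 75% or more and at least half the replicates too; inconclusive = mean and replicates disagree; tested in HMLE shEcad cells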;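 note: 0% = median of negative and 100% = median of positive control wells; the first replicate is given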
eIF4H FP inh: inhibitors of RNA binding by human eIF4H; Q15056; eIF4H fluorescence polarization binding assay; inhibition, % at 35 µM; 0.94% of 290,000 active;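 active = 50% or more with normal probe brightness, or confirmed in later tests; inconclusive = above 50% with abnormal brightness, or retests that disagree; inactive = below 50% or failed in later tests; about a fifth of its hits are not listed in these tables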;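 note: calls also rest on retests at 20 µM and on dose response follow-up; 0% = protein and probe with vehicle and 100% = probe without protein; strong numbers were not always called active; many hits fall short of the cut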
PABP polyA inh: blocks human PABP binding to poly(A) RNA | 1% of 290,000 active | P11940 | fluorescence polarization | inhibition, % at 35 µM;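 active = 50% or more with normal probe brightness, or confirmed in later tests; inconclusive = above 50% with abnormal brightness, or retests that disagree; inactive = below 50% or failed in later tests; about a fifth of its hits are not listed in these tables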;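 note: calls also rest on retests at 20 µM and on dose response follow-up; controls were probe without protein and protein plus probe with vehicle; some compounds called inactive have numbers as strong as hits; many hits fall short of the cut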
UUG fidelity: yeast start codon fidelity modulation; S. cerevisiae UUG-firefly luciferase reporter, luminescence/redox ratio; activity score, % at 18.7 µM; 0.13% of 350,000 active;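 active = replicate mean at a twofold rise or more, about +100% in these data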;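 note: firefly luciferase made from a UUG start codon reports start codon fidelity; reporter light over untreated wells divided by growth signal over untreated wells; some hits fall short of that in this replicate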
HIV Env fusion: blocks HIV Env-driven cell-cell fusion; HeLa-JRFL Env/CEM21 cell fusion, luciferase; inhibition, % at 12.3 µM; 1.1% of 360,000 active; AID 651610;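 active = mean replicate inhibition score of at least 50 and every replicate individually at or above 50; inconclusive = only one of the two criteria met; inactive = mean below 50 and not all replicates reaching 50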;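 note: 0% = plate neutral controls and 100% = maraviroc near 300 nM; one replicate is shown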
eIF4H FP inh retest: also measured in eIF4H FP inh; calls as there; inhibition, %; compound at 20 µM; confirmation average;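 mean of two retest wells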
PABP polyA inh retest: recorded beside PABP polyA inh, whose call it bears; inhibition, %; compound at 20 µM; confirmation repeats;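 mean of two retest wells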
MT1-MMP act inh RFP: also measured in MT1-MMP act inh; calls as there; RFP signal change, %; measured here: RFP expression control read;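 0 = vehicle wells; hits needed this value within 50% of zero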
An asterisk follows results filed as active; i = inactive; ? = inconclusive; . = not tested or not shown. An excerpt. The share of hits here may be higher or lower than overall.

SMILES | Rce1 inh | MT1-MMP act inh | MT1-MMP act inh RFP | CSC inhib | eIF4H FP inh | PABP polyA inh | UUG fidelity | HIV Env fusion | others
CCOC(=O)N(C)c1ccc(C(O)(C(=O)OCC)C(F)(F)F)cc1 (centres undefined) | i | 0.2 | -2.3 | -9.4 | 3.5 | 0.9 | -24.1 | -19.3
CC1CN=C(Nc2ccc(F)c(Cl)c2)S1 (centres undefined) | i | 2.7 | -2.6 | 6.0 | -8.8 | -5.1 | . | 0.2
CN1C(=O)C(=Cc2sc(=O)n(-c3ccccc3)c2N2CCCCC2)C(=O)N(C)C1=O | i | -65.5 | 4.5 | . | ? | ? | 8.5 | -7.8
CC(C)NC(=O)c1ccc(N2CC3CC(C2)c2cccc(=O)n2C3)c([N+](=O)[O-])c1 (centres undefined) | i | 5.6 | -2.3 | 4.5 | 5.1 | -1.5 | 11.5 | 8.4
CCn1c(C(=O)N2CCC(C(=O)N3CCC4(CC3)OCCO4)CC2)cc2sccc21 | . | 0.7 | 3.9 | 5.3 | -2.5 | -7.1 | -15.2 | .
CCCn1c(C(=O)c2ccc(OC)cc2)nc2ccccc21 | i | -1.5 | 0.0 | -2.4 | -7.8 | -7.4 | 3.6 | 7.5
CCOc1c(P(=S)(N(C)C)N(C)C)c(C)nn1-c1ccccc1 | . | 2.3 | -1.1 | 16.4 | 0.9 | 12.4 | . | .
CC1CCCCN1Cc1ccc(Cl)nc1 (centres undefined) | i | 6.9 | 3.1 | . | -4.9 | 2.8 | . | -5.5
COC(=O)C1=C(c2cccc(C#N)c2)C[C@@H]2CC[C@H]1N2C(=O)NCCCOC(C)C | . | -2.4 | 0.5 | 7.9 | . | . | -9.7 | -12.2
C=Cn1ccnc1P(=S)(c1ccn(C)c1)c1nccn1C=C | i | -1.6 | 7.3 | . | -7.6 | -0.4 | -18.9 | .
COCCOC(=O)C1=C(N)Oc2c(c(=O)oc3ccccc23)[C@@]12C(=O)Nc1ccccc12 | i | -4.2 | 0.8 | -14.3 | 12.3 | -3.7 | -10.5 | -14.7
COCCNCCOc1ccc(C(C)(C)c2ccccc2)cc1 | i | -5.2 | -2.1 | 70.0 | 10.8 | -6.0 | . | .
CC(=O)Nc1nnc(CCN(CCc2nnc(NC(C)=O)s2)[N+](=O)[O-])s1 | . | 4.9 | 0.2 | -1.7 | 7.4 | 6.1 | . | -2.7
COc1cccc(C(c2nnnn2C2CCCCC2)N2CCC3(CC2)C(=O)NCN3c2ccccc2)c1OC (centres undefined) | . | 7.8 | -8.3 | . | . | . | -1.2 | -89.6
CC1CC2C(C(O)CC3(C)C(O)CCC23)C2(C)CCC(=O)C=C12 (centres undefined) | . | 10.7 | 2.0 | . | . | . | -0.6 | -97.9
O=C1/C(=C\c2ccc(Cl)c(Cl)c2)N2CCC1CC2 | i | -1.6 | -3.0 | 0.8 | -9.2 | -3.2 | -16.1 | 5.5
O=C(NCC(c1cccnc1)N1CCOCC1)Oc1ccccc1 (centres undefined) | i | -2.2 | 3.8 | -6.6 | -0.1 | -7.2 | 1.6 | -72.6
COc1ccc(CN2CCN(C(=O)COc3ccc4ccccc4c3)CC2)c(OC)c1 | i | 5.9 | 1.0 | 9.2 | 0.9 | 17.2 | -6.4 | 15.6
CCCCCn1c(=O)c(C(=O)Nc2ccccc2Cl)c(O)c2ccccc21 | i | -1.3 | -4.5 | 18.4 | -1.5 | -5.5 | 2.8 | -35.4
Cc1cc(C)cc(N2C(=O)NC(=O)/C(=C/c3cccn3-c3ccc(Cl)cc3)C2=O)c1 | i | 4.3 | 7.6 | 75.4* | 20.5 | -3.4 | . | -51.1
CCCCn1c(N)c(C(=O)OCC2CCCO2)c2nc3ccccc3nc21 (centres undefined) | i | -8.2 | -6.0 | -4.8 | 4.5 | -0.9 | -11.6 | .
C=CCN1C(=O)/C(=C\c2ccc(N3CCOCC3)o2)C(=O)NC1=S | i | -82.7 | 2.7 | 0.0 | ? | -0.8 | 9.0 | 2.8
Cc1[nH]c2ccc(OC(F)(F)F)cc2c1CCNCc1ccc(Cl)cc1 | i | -4.4 | -2.4 | 104.4* | -7.3 | -6.1 | -10.8 | 92.6*
N#Cc1ccccc1NC(=O)CN1CC=C(c2ccccc2)CC1 | i | -1.9 | 1.3 | -5.2 | 18.0 | 0.5 | . | -5.8
CC1(C)C(=O)CCC2C1=CCC1C2CCC2(C)C(O)CCC12 (centres undefined) | . | 1.8 | 4.3 | . | . | . | 1.7 | ?
COc1cccc(CC(=O)N2CCN(Cc3cccc(Cl)c3)CC2)c1 | i | -2.2 | -2.5 | -8.4 | 6.1 | 12.3 | 6.8 | -3.2
CCOC(=O)C1(c2ccccc2)CCN(CC(=O)Nc2cccc3ccccc23)CC1 | i | -4.4 | -17.0 | -2.3 | -4.0 | 1.0 | . | -23.5
C/C(=N\NC(=O)c1ccccc1)c1c(O)n(C2CCCCC2)c(=O)[nH]c1=O | i | 0.3 | 4.6 | -6.8 | -11.0 | 1.3 | -17.5 | -2.0
O=C1C=Cc2ccccc2C1=O | i | . | . | 15.0 | 42.2 | 49.5 | 1.4 | .
COc1ccc(CN2Cc3cc(N4CCCCC4)ccc3-n3nncc3C2)cc1 | . | 3.7 | 1.9 | . | . | . | -1.6 | 6.8
Cc1ccc(NC2=NCCCS2)cc1Cl | i | 1.3 | 0.6 | 5.8 | -7.5 | 4.8 | -3.6 | 7.6
O=c1[nH]c(=O)n(C2CCCCC2)c(O)c1/C=C/C=Nc1ccccc1 | i | -123.7 | 6.5 | -8.7 | ? | ? | . | -4.3
COC(=O)C1=C(c2ccc(F)cc2F)C[C@@H]2CC[C@H]1N2C | . | 2.1 | 1.4 | -9.8 | . | . | 5.7 | 10.6
Cc1ccc(CN2CCCN(Cc3ccc(Cl)cc3)S2(=O)=O)cc1 | i | 1.9 | 2.2 | . | 4.8 | -2.1 | -36.4 | -3.7
Cc1cc(N2C(=O)CC(N3CCC(n4c(=O)[nH]c5ccccc54)CC3)C2=O)no1 (centres undefined) | i | 2.8 | 4.3 | 17.4 | 4.0 | 5.5 | -16.4 | .
COc1ccc2[nH]c(C)c(CCNCc3cc(OC)c(OC)c(OC)c3)c2c1 | i | -5.7 | -6.7 | -8.8 | 94.0* | 2.2* | . | 5.9 | eIF4H FP inh retest=67.2*;PABP polyA inh retest=84.6*

The closing 3 records of the part above are carried over, then new ones follow:
SMILES | Rce1 inh | MT1-MMP act inh | MT1-MMP act inh RFP | CSC inhib | eIF4H FP inh | PABP polyA inh | UUG fidelity | HIV Env fusion | others
Cc1ccc(CN2CCCN(Cc3ccc(Cl)cc3)S2(=O)=O)cc1 | i | 1.9 | 2.2 | . | 4.8 | -2.1 | -36.4 | -3.7
Cc1cc(N2C(=O)CC(N3CCC(n4c(=O)[nH]c5ccccc54)CC3)C2=O)no1 (centres undefined) | i | 2.8 | 4.3 | 17.4 | 4.0 | 5.5 | -16.4 | .
COc1ccc2[nH]c(C)c(CCNCc3cc(OC)c(OC)c(OC)c3)c2c1 | i | -5.7 | -6.7 | -8.8 | 94.0* | 2.2* | . | 5.9 | eIF4H FP inh retest=67.2*;PABP polyA inh retest=84.6*
CCCC(=O)NC(Oc1ccc(Cl)cc1Cl)C(Cl)(Cl)Cl (centres undefined) | i | 5.2 | 4.4 | 2.0 | -1.6 | 13.0 | . | .
CN(C)C(=O)Oc1cccc(-c2cn3cc(Cl)ccc3n2)c1 | i | -0.6 | 2.1 | -0.7 | -3.4 | 20.2 | -16.4 | -412.3
Cc1ccc(-n2c(O)c(C=NCCCn3ccnc3)c(=O)[nH]c2=O)cc1 | i | 0.7 | 4.1 | -1.8 | -3.3 | 3.6 | . | 9.3
O=[N+]([O-])c1ccc(N2CCNCC2)cc1NCC1CCCO1 (centres undefined) | i | -11.4 | -0.5 | 15.8 | -2.6 | 8.2 | 3.6 | 26.8
O=C(CN1CCCC1=O)NCCc1ccccc1 | i | -4.1 | 1.1 | -8.3 | -9.4 | -2.9 | 5.2 | 10.0
CC(=O)OC1(c2ccc(C)cc2)CN2CCC1c1ccccc12 (centres undefined) | i | 4.1 | 5.4 | -26.4 | -2.0 | 7.2 | . | .
COc1ccc(CC2c3cc(OC)c(OC)cc3CCN2C)cc1O (centres undefined) | i | -1.8 | 1.9 | 3.9 | -5.0 | 6.9 | 0.6 | -4.9
O=C(c1ccc(N2CC3CC(C2)c2cccc(=O)n2C3)c([N+](=O)[O-])c1)N1CCCC1 (centres undefined) | i | 1.7 | 5.4 | -8.3 | 2.0 | 0.1 | -7.2 | -21.4
COc1ccc(N=C(C)c2c(O)n(C3CCCCC3)c(=O)[nH]c2=O)c(OC)c1 | i | -5.9 | -9.1 | -13.8 | -14.0 | 93.0 | 12.7 | -3.7 | eIF4H FP inh retest=-3.0;PABP polyA inh retest=0.2
COC(=O)c1c(C)n(Cc2ccco2)c2ccc(O)cc12 | i | 4.9 | -4.4 | 1.0 | -11.6 | 4.0 | -20.8 | .
CC1Oc2cc3c(-c4c(O)cc(O)c5c(O)c6c(cc45)OC(C)C(C)C6=O)c(O)cc(O)c3c(O)c2C(=O)C1C (centres undefined) | i | -8.9 | -39.2 | -3.1 | 90.2* | 78.7* | -3.3 | .
O=[N+]([O-])c1ccc(N2CCCC2)c2ccncc12 | i | 25.6 | -4.4 | -7.4 | -14.5 | -1.2 | . | 5.8
COC(=O)C1=C(c2ccc(S(C)(=O)=O)cc2)C[C@@H]2CC[C@H]1N2C(=O)NC1CC1 | i | -0.7 | 6.1 | -12.6 | . | . | 16.1 | -25.4
OC1(c2ccc(F)cc2)CC2CCC(C1)N2Cc1nnnn1C1CCCCC1 (centres undefined) | i | 1.7 | -5.8 | 2.5 | 0.4 | -0.1 | . | .
COC(=O)C1=C(c2ccccc2OCc2ccccc2)C[C@@H]2CC[C@H]1N2C(=O)NCc1ccc(N(C)C)cc1 | . | -1.3 | -7.2 | 47.5 | . | . | -13.1 | -13.4
CCN(CC)CCCN=C(C)c1c(O)n(C2CCCCC2)c(=O)[nH]c1=O | i | -11.0 | 5.1 | . | 4.1 | 4.2 | -1.7 | 6.2
O=C1NC(=O)C(=Cc2cccc(OCCOc3ccccc3)c2)C(=O)N1 | i | -1.0 | -0.1 | 0.4 | -6.0 | 9.1 | -12.3 | -12.6
CC(C)(O)/C=C/C(=O)[C@](C)(O)C1[C@H](O)C[C@@]2(C)C3CC=C4C(C[C@H](O)[C@@H](O)C4(C)C)[C@]3(C)C(=O)C[C@]12C (some centres undefined) | . | -27.7 | -15.7 | 53.4 | . | . | -0.8 | .
CCN1CCN(S(=O)(=O)c2ccc(Cl)c(C(=O)Nc3ccc(C(=O)N(CC)CC)cc3)c2)CC1 | i | 1.3 | -10.9 | -6.5 | . | . | -7.8 | .
CC1CC2(O)c3no[n+]([O-])c3CCC2N1O (centres undefined) | i | 2.8 | 4.1 | 8.0 | -9.3 | 3.5 | . | -16.3
CCN(CC)c1ccc(C=C2C(=O)NC(=S)NC2=O)cc1 | i | -3.2 | 0.9 | 66.1 | 45.7 | 4.7 | -19.9 | -2.9
Cc1cc(C=C(C#N)C#N)ccc1N1CCCC1 | i | -7.0 | 0.4 | -4.9 | ? | ? | -21.2 | -10.9
COC(=O)c1ccccc1N=Cc1c(O)[nH]c(=S)[nH]c1=O | i | 12.7 | 25.6 | -0.1 | 44.3 | -13.7 | . | 0.7
